Ab BasE inh – blocks the Acinetobacter baumannii siderophore enzyme BasE. purified BasE, fluorescence polarization binding displacement. 0.1% of 84,000 active. inhibition, % (concentration not given with the values);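 active = both replicates above 25% with normal brightness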;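 note: 0% = negative plate control signal and 100% = positive plate control signal; stock transfer was 100 nL into about 30 µL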
LANA-nucl inh – inhibitors of KSHV LANA binding to nucleosomes. FITC-LANA1-23 / chicken nucleosome fluorescence polarization; hits give low values. z-score (no concentration beside the values). 0.3% of 51,000 active. AID 720717;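 active = both repeat wells score below -2 in polarization z-score versus plate sample wells, excluding overly bright wells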;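 note: 100 nL library stock added to about 30 µL; numbers are from one replicate; some results filed as inactive read as strong as hits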
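Test system: purified chicken nucleosomes with FITC-labelled LANA N-terminal peptide (1-23); Input: 240 nM purified chicken nucleosomes (480 nM peptide binding sites), final; Medium: TEN-BT buffer, pH 7.5; Timing: 10–45 min, room temperature; Technique: fluorescence polarization, 480 nm excitation, 535 nm parallel and perpendicular emission; Replication: duplicates.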
Numbers without * were called inactive; x = not tested or not shown.

SMILES | Ab BasE inh | LANA-nucl inh
Cc1cc(NCCN(C)C)c2ccccc2n1 | 2.6 | -2.2*
CN1CCc2c(Nc3ccc(Cl)cc3)nc3[nH]n(-c4ccccc4)c(=O)c3c21 | 0.9 | x
O=C(CSc1nnc(-c2ccccc2)o1)Oc1ccc(Br)cc1 | 0.3 | 1.8
CCOc1ccc(-c2noc(CCCC(N)=O)n2)cc1OC | 1.8 | -0.14
O=C(Nc1ccc(Cl)cc1)c1cnc(N2CCCC2)nc1 | -2.7 | 1
CC(OC(=O)c1cc2sccc2n1C)C(=O)NCC1CCCO1 (stereo unspecified) | 1.1 | -0.73
O=C(Oc1ccc(Cl)cc1)c1cccs1 | -0.2 | 0.2
CN1CCC(N(C)C(=O)/C=C/c2cn(-c3ccccc3)nc2-c2cccnc2)CC1 | -2.1 | x
CC(=O)N1N=C(c2ccccc2)OC1c1cccnc1 (stereo unspecified) | 11 | x
CCOC(=O)c1sc2nc(NC(=O)C3CC3)sc2c1C | 3.6 | 0.62
COc1ccc(-n2c(=O)/c(=C\c3ccccn3)s/c2=C(/C#N)C(=O)NC2CC2)cc1 | 1.4 | x
CCOc1ccc(NC(=O)C2CC(=O)NC(N3CCCCC3)=N2)cc1 (stereo unspecified) | -0.1 | 0.58
Nc1nc(CSc2nnc(-c3cccc(Br)c3)n2C2CCCCC2)cs1 | -0.9 | 0.78
CCOc1ccccc1C(=O)NCC(=O)N(C)Cc1cccnc1 | 0.2 | x
Nc1ccccc1OC(=O)C[n+]1ccccc1 | -3.4 | 0.15
N#Cc1c(N)nc(SCc2ccccc2)c(C#N)c1-c1cccs1 | 1.9 | -0.75
C=CCn1c(Cc2ccc(OC)cc2)nnc1SC(C)C(=O)Nc1ccc2c(c1)OCO2 (stereo unspecified) | -0.9 | -0.67
Cc1ccc2nc(-c3ccccn3)cc(C(=O)O)c2c1 | -2.3 | -1.3
O=C(CC1OC(=O)c2ccccc21)Nc1cccc2cccnc12 (stereo unspecified) | -3.2 | x
CN(Cc1ccco1)C(=O)COc1cccc2c1OC(C)(C)C2 | 1.5 | x
O=S(=O)(Nc1nc2ccccc2nc1NC1CCCC1)c1ccc(Cl)s1 | 5.2 | x
C=C(C)Cn1c(=S)n(Cc2ccccc2)c2ccccc21 | 0.9 | x
O=C(NC(=S)n1nnc2ccccc21)c1ccccc1 | x | 1.3
CCCCOc1ccc(OCCNC(=O)C2CCC(=O)N2)cc1 (stereo unspecified) | 2.4 | -1
Brc1ccc(-c2nnc3n2-c2ccccc2CC3)cc1 | -0.3 | x
O=C(NCCN1CCc2ccccc2C1)C1CCN(S(=O)(=O)N2CCCC2)CC1 | 1.5 | -1.2
O=C(Cc1csc2nc(-c3ccccc3)cn12)NC1CCCC1 | 0.3 | -0.38
CCOCN(C(=O)Cn1c(-c2ccco2)nc2ccccc21)c1c(C)cccc1CC | -1.4 | -0.03
CCNc1oc(-c2ccc(F)cc2)nc1S(=O)(=O)c1ccc(Cl)cc1 | 3.0 | 0.028
C=CCN1C(=O)/C(=C/C=c2\c3cccc4cccc(c43)n2CC)SC1=S | 2.4 | x
CCOC(=O)c1cc(-c2ccc(OC)c(S(=O)(=O)N(C)c3ccc(OCC)cc3)c2)on1 | -1.0 | 0.41
CN(C)N1C(=O)CC(Nc2ccc(F)cc2)C1=O (stereo unspecified) | 3.3 | -1
CSc1cccc(NC(=O)C2CCN(S(=O)(=O)c3cnc[nH]3)CC2)c1 | -6.5 | -0.17
N=c1oc2ccc3ccccc3c2cc1C(=O)Nc1ccccc1 | 1.6 | x
CC(C)CN(C(=O)COc1ccc(F)cc1)C1CCS(=O)(=O)C1 (stereo unspecified) | 1.5 | x
Cc1c(N2CCCC2)cc2c(c1-n1cccc1)C(C)(C)CC2(C)C | 1.6 | x
CN(C)CN1C(=O)c2ccccc2C1=O | -1.3 | x
O=C(CSc1n[nH]c(=O)n1Cc1ccco1)c1ccc2c(c1)OCCO2 | 0.0 | -0.82
CCS(=O)(=O)N1CCN(C2CCCCCCC2)CC1 | -0.6 | 0.84
N#Cc1ccc2ccn(CC(N)=O)c2c1 | -3.5 | -1.3

Brought forward from above: 2 compounds; new compounds follow.
SMILES | Ab BasE inh | LANA-nucl inh
CCS(=O)(=O)N1CCN(C2CCCCCCC2)CC1 | -0.6 | 0.84
N#Cc1ccc2ccn(CC(N)=O)c2c1 | -3.5 | -1.3
CCC(=O)Nc1nc2cc(Cl)c(C)cc2s1 | -1.2 | -0.88
CCC(C)NC(=O)c1ccc(CS(=O)(=O)Cc2cccc(C)c2)o1 (stereo unspecified) | -0.5 | 1.3
Cc1cc(C)nc(SCc2ccccc2C(=O)O)n1 | 0.7 | x
CCc1ccc(NC2=CC(=O)CC(c3ccco3)C2)cc1 (stereo unspecified) | 1.4 | x
CCC(=O)NCC1(c2ccccc2)CCCC1 | -0.4 | -0.14
CCOC(=O)CC1C(=O)NCCN1C(=O)COc1ccc(C(C)(C)C)cc1 (stereo unspecified) | -0.1 | -0.93
Cc1c(Cl)cccc1-n1c(SCC(=O)N2CCC(C(=O)O)CC2)nc2ccccc2c1=O | 0.0 | x
CN1/C(=C\C(=O)COC(=O)C2CCN(S(=O)(=O)c3ccc4c(c3)OCCO4)CC2)C(C)(C)c2ccccc21 | 0.8 | x
COCc1c(C(=O)OCc2cc(=O)oc3cc(C)ccc23)oc2ccccc12 | 1.5 | x
COC(=O)c1ccccc1NC(=O)/C(C#N)=C/c1ccc2noc(-c3ccccc3)c2c1 | 6.9 | 0.97
CCc1nc2c(cnn2-c2ccccc2)c(=O)n1-c1ccc(Br)cc1 | 2.6 | -0.62
N/C(=N\S(=O)(=O)c1ccc(Cl)c(Cl)c1)c1ccccn1 | 1.6 | x
Cc1cc2c3c([nH]c2cc1S(=O)(=O)N1CCC(C)CC1)CCCC3=O | 0.9 | -1
O=C(Nc1c2c(nn1-c1cccc(Cl)c1)CS(=O)(=O)C2)c1ccc(S(=O)(=O)N2CCCC2)cc1 | 0.1 | -0.43
CCOCCCn1c(SCc2ccccc2)nnc1-c1ccncc1 | 0.5 | x
Cc1ccc(C)c(CN2CCNC2=O)c1 | 0.8 | -1.4
COc1ccccc1CNC(=O)[C@@H]1CC(O)CN1C(=O)C12CC3CC(CC(C3)C1)C2 (stereo partly specified) | 1.1 | x
Cc1nsc(N)c1C(=O)OCC(=O)N1CCN(S(=O)(=O)c2ccc(Cl)cc2)CC1 | -1.5 | x
Cc1cc(NC(=O)COC(=O)CCc2c[nH]c3ccccc23)no1 | 1.1 | x
CN(/N=C/c1ncc(C(F)(F)F)cc1Cl)C(=O)c1ccc(Cl)cc1 | -0.9 | x
c1ccc(OC2CN(C(c3ccccc3)c3ccccc3)C2)cc1 | x | 0.12
O=C(NC(O)C(=O)c1ccccc1)c1ccc(F)cc1 (stereo unspecified) | -0.7 | x
CCn1c(SCCC(=O)Nc2ccccc2)nnc1-c1ccc(OC)cc1 | 0.9 | 0.24
O=C(Cc1ccsc1)OCN1C(=O)c2ccccc2C1=O | 3.0 | x
CCCCC(=O)O[C@]1(C(=O)CO)CCC2C3CCC4=CC(=O)CC[C@]4(C)C3[C@@H](O)C[C@@]21C (stereo partly specified) | x | -0.22
COC(=O)c1ccc(Sc2ccc(F)cc2)c(N)c1 | -1.4 | -0.11
O=C(OCCCCN1C(=O)c2ccccc2C1=O)c1ccc(S(=O)(=O)N2CCCC2)cc1 | -0.6 | x
CCOc1cc(S(=O)(=O)N(CC)CC)c(OCC)cc1-n1cnnn1 | 1.6 | -0.75
CCN(CCO)C(=S)Nc1ccccc1C | 3.4 | x
CCN1C(=O)CC(OC(C)=O)C1=O (stereo unspecified) | 1.2 | -0.42
Cc1ccc(S(=O)(=O)N(CC(O)CN2CCCCC2)c2ccccc2)cc1 (stereo unspecified) | 1.8 | -0.6
C=C(C)c1cccc(C(C)(C)NC(=O)N2CCCC2)c1 | 0.4 | -0.14
CC(C)(C)NC(=O)C1CC(=O)OC1(C)C (stereo unspecified) | 0.7 | -0.64
CCc1cc(=O)[nH]c(SCc2ccc(C)cc2)n1 | x | -0.73
O=C1C2C(c3ccccc3)C=CC(c3ccccc3)C2C(=O)N1c1nccs1 (stereo unspecified) | -2.0 | x
CC1(C)CC(=O)C2=C(C1)Nc1ccccc1N(C1OC(=O)c3ccccc31)C2c1ccco1 (stereo unspecified) | 2.5 | 1.2
CCOC(=O)Nc1ccc2c(CNCC(C)C)cc(=O)oc2c1 | -0.2 | x
Cc1noc(C)c1CC(=O)Nc1cc(C(F)(F)F)ccc1NC1CCCCC1 | 0.6 | x
CCOC(=O)c1cnc(SCC(=O)N2c3ccccc3SC3C=CC=CC32)nc1N (stereo unspecified) | -0.7 | 0.83
N#C/C(=C\C(=C\N1CCOCC1)c1ccccc1)c1ccccc1 | 0.2 | x
O=c1c2ccccc2c(-c2ccccc2)nn1CN1CCCC1 | -0.2 | 0.88
O=C(NCCC(=O)N1CCN(c2ncccn2)CC1)c1ccccc1Cl | 1.6 | x
CN1C2CCC1CC(NC(=O)CS(=O)(=O)c1ccccc1)C2 (stereo unspecified) | x | 0.16
COC(=O)c1c(C(=O)OC)c2n(c1C)CCS2 | 4.0 | -0.38
CCOc1cccc(CNc2ccc(NC(=O)CC)cc2)c1O | 1.1 | -0.58
O=C1C(Cc2cc(Cl)ccc2Cl)S/C(=N\N=C\c2ccccc2O)N1Cc1ccco1 (stereo unspecified) | -1.3 | x
C=CCN(C(=O)CN1CCN(C)CC1)c1nc(-c2c[nH]c3ccccc23)cs1 | -13 | 1.1
O=C(COc1c(-c2ccco2)oc2ccccc2c1=O)c1ccc(Br)cc1 | -2.6 | 0.088
Cc1ccc(Sc2c(C)nn(C(=O)c3ccco3)c2C)cc1 | 4.2 | 0.33
Cc1nc(COc2ccc(C(C)(C)C)cc2)ncc1S(=O)(=O)c1ccc(Cl)cc1 | 1.5 | x
CCCCN(C(=O)Nc1cccc2ccccc12)C1CCS(=O)(=O)C1 (stereo unspecified) | -2.7 | x
Cn1c(/C(C#N)=C(\O)COc2cc(Cl)c(Cl)cc2Cl)nc2ccccc21 | 1.1 | x
CC1(C)C(=S)NC(c2ccccc2)N1O (stereo unspecified) | -0.5 | x
COc1cccc(N=Cc2cn(-c3ccccc3)nc2-c2cccs2)c1 | -1.2 | x
Cc1cc(=O)[nH]c(NNC(=S)NCc2ccccc2)n1 | 1.1 | x
CSc1ccccc1C(=O)Nc1ncn[nH]1 | 5.1 | 0.002
NC(=S)N/N=C1/C(=O)c2cccc3cccc1c23 | 8.9 | x
COC(=O)CSc1n[nH]c(-c2ccccn2)n1 | 1.2 | -0.74
O=C1OC(Nc2cccc(C(F)(F)F)c2)c2ccccc21 (stereo unspecified) | -0.9 | 0.002
CN1C(=O)NC(c2ccccc2)C2=C1CC(C)(C)CC2=O (stereo unspecified) | -2.4 | x

3 compounds out of the list, ordered by length of the SMILES, highest first:
SMILES | Ab BasE inh | LANA-nucl inh
Cc1c(Cl)cccc1-n1c(SCC(=O)N2CCC(C(=O)O)CC2)nc2ccccc2c1=O | 0.0 | x
CN(/N=C/c1ncc(C(F)(F)F)cc1Cl)C(=O)c1ccc(Cl)cc1 | -0.9 | x
O=C(CSc1nnc(-c2ccccc2)o1)Oc1ccc(Br)cc1 | 0.3 | 1.8

The list goes on.
SMILES | Ab BasE inh | LANA-nucl inh
C=CCOc1nc(-c2ccccc2)cc(-c2ccc(OC)cc2)n1 | -0.8 | -1.4
CC1C(=NO)C(C)C(c2ccccc2)NC1c1ccccc1 (stereo unspecified) | 1.0 | -0.69
Cc1cccc(NC(=S)NCc2ccco2)c1 | 2.7 | -0.36
COC(C(=O)Nc1ccccc1SC)c1ccccc1 (stereo unspecified) | 1.7 | -0.015
COC(=O)C(=O)/C=C(\O)c1c(F)c(F)c(OC)c(F)c1F | 0.1 | x
OCC(O)C1OC(Nc2ccc(Cl)cc2)C(O)C1O (stereo unspecified) | 1.6 | x
CCOC(=O)c1[nH]c2ccccc2c1N=CN(C)C | -1.8 | -0.32
CS(=O)(=O)c1ccc(NC(=O)c2cc(=O)[nH]c3ccccc23)cc1 | 2.9 | x
CCCc1ccc(C(=O)COc2ccc(-n3cnnn3)cc2)cc1 | -1.9 | x
O=C(c1cc(-c2ccccc2Cl)nc2ccccc12)N1CCN(C2CCS(=O)(=O)C2)CC1 (stereo unspecified) | 2.0 | x
COc1ccc(C(C#N)C2(C)OCCO2)cc1OC (stereo unspecified) | -0.8 | -1.3

Complete entries, looked up by structure:
CCOCN(C(=O)Cn1c(-c2ccco2)nc2ccccc21)c1c(C)cccc1CC is entered as Ab BasE inh: -1.4; LANA-nucl inh: -0.03
CCCCC(=O)O[C@]1(C(=O)CO)CCC2C3CCC4=CC(=O)CC[C@]4(C)C3[C@@H](O)C[C@@]21C (stereo partly specified) is entered as Ab BasE inh: x; LANA-nucl inh: -0.22

Part of the list above in a different format.
> COC(C(=O)Nc1ccccc1SC)c1ccccc1 (stereo unspecified)
  Ab BasE inh: 1.7
  LANA-nucl inh: -0.015

> COC(=O)C(=O)/C=C(\O)c1c(F)c(F)c(OC)c(F)c1F
  Ab BasE inh: 0.1
  LANA-nucl inh: x

> OCC(O)C1OC(Nc2ccc(Cl)cc2)C(O)C1O (stereo unspecified)
  Ab BasE inh: 1.6
  LANA-nucl inh: x

Bioassay records (PubChem)

Only part of the results is shown; the hit share may differ from the screen's.
